Screening data: PubChem, National Center for Advancing Translational Sciences (NCATS)
TRPML1 agonist: qHTS for Agonists of the Human Mucolipin Transient Receptor Potential 1 (TRPML1); AID 624414, 2012; activation, % (test concentration not listed); Mucolipin-1 (Homo sapiens), Q9GZU1; 410,000 compounds, 0.12% hits; TRPML1-expressing cells, Ca2+ dye fluorescence, FDSS; host cell line not named in the record; reference of the full effect not given here; in the data active = activation above about 50%; inconclusive = about 30% to 50%; inactive = below about 30%; note: 0% is about no effect; the text of the record puts the active cut at 80%
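TRPML1-DL cells, Tet-induced overnight (~16 h, 37 degrees C), loaded 45-90 min at room temperature with Ca8 no-wash calcium dye plus quencher. FDSS fluorescence: 10 s baseline, compound pin-transfer, 110 s agonist read, then EC80 54-4 (4uM final) and 110 s antagonist read.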
ClpP mod: qHTS Assay for Activators of ClpP. purified B. subtilis ClpP, FRET peptide cleavage, 20 min. Potency, µM (titrated, usually from 57.5 µM), inactives show at the top dose activity change, negative = active. 340,000 compounds, 1.9% hits. AID 651965, 2013; active = well fitted falling curve with a large enough effect; inconclusive = small, poorly fitted or top-dose-only effect; inactive = no such curve, though single readings can be large or run the other way; note: potency is the fitted concentration of half-maximal effect; the source files actives as falling curves though it sought activators and does not explain the sign; nearly all actives have a fitted effect of over 65% in size; many hits overshoot -100%
Target sequence (P80244 whole entry, looked up): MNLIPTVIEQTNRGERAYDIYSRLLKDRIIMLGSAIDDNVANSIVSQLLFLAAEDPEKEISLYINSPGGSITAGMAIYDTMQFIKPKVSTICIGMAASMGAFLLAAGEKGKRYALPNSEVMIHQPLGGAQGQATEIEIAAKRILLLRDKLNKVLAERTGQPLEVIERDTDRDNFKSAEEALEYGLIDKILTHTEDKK
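ClpP 10 microg/mL final, pH 8 Tris/KCl buffer with BSA, glycerol, Tween-20; compound pinned in; FRET-FV substrate; RT 20 min; Ex320/Em430; ΔFRET vs ADEP 5.8 microM, DMSO, no enzyme.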
The depositor's hits bear a star. A portion of the library (hit frequency here may not be typical).

Cc1ccc(S(=O)(=O)NC(=O)C2(C)CCN2C(=O)Cc2ccc(-c3ccccc3)cc2)nc1 (stereo not given) was read as TRPML1 agonist -0.5 and ClpP mod -0.7%.
`CCOC1=C2[C@@H](CN(S(=O)(=O)c3ccc(C)cc3)[C@H]2c2ccc(CC)cc2)[C@H]2C(=O)N(c3ccccc3)C(=O)[C@H]2C1` gave TRPML1 agonist -0.2 and ClpP mod 1.0%.
For COc1ccc(-c2cc(NC=O)c3ncc(-c4cnn(C)c4)n3c2)cc1 the results were TRPML1 agonist 3.7 and ClpP mod inconclusive.
For COc1ccc(NC(=O)c2cc(-c3cc(Cl)ccc3OC)n[nH]2)cc1OC the results were TRPML1 agonist -0.3 and ClpP mod -2.4%.
Screening Cc1cc(C)n2c(NC3CCCCC3)c(-c3cccnc3)nc2n1 returned TRPML1 agonist 1.4 and ClpP mod -22%.
Screening Nc1ccn([C@@H]2O[C@H](C(=O)N3CCCN(Cc4ccccc4F)CC3)[C@@H](O)[C@H]2O)c(=O)n1 returned TRPML1 agonist -0.2 and ClpP mod 1.8%.
`CC(C)c1ccc(/C=C/C(=O)Nn2cnnc2)cc1` gave TRPML1 agonist -0.4 and ClpP mod -2.8%.
Screening COc1cccc(CNC(=O)[C@@H]2CCCN2C(=O)[C@@H]2CCCN2C(=O)c2ccc(Cl)cc2)c1 returned TRPML1 agonist -0.8 and ClpP mod 0.4%.
Screening Cc1ccc2nc(-c3cccc(-c4nc5ccc(C)cc5o4)n3)oc2c1 returned TRPML1 agonist -0.3 and ClpP mod inconclusive.
`CC(C)(C)c1ccc(S(=O)(=O)NC(=O)C2(C)CCN2C(=O)Cc2ccc(-c3ccccc3)cc2)cc1` (stereo not given) gave TRPML1 agonist 1.0 and ClpP mod 2.4%.
CCCCN(C=O)c1c(CC)nc2ccc(C(=O)NCc3ccccc3OC)cn12 was read as TRPML1 agonist -1.0 and ClpP mod -6.1%.
For N#CCCCc1cn(-c2nc3ccccc3s2)nn1 the results were TRPML1 agonist -0.7 and ClpP mod -16%.
`C=C1C2=C(C(=O)N1OC)[C@@H](O)[C@@](C)(O)[C@@H](CCCCC)O2` gave TRPML1 agonist 0.5 and ClpP mod 0.0%.
N#Cc1ccc[n+](CC(=O)c2ccc(F)cc2)c1 was read as TRPML1 agonist 1.0 and ClpP mod 0.1%.
Screening Cc1cc(O)ccc1Nc1cc(-c2cccc(N(C)C)c2)ncn1 returned TRPML1 agonist -0.9 and ClpP mod -4.7%.
CCOC(=O)[C@]12Cc3c(cc(OC)c(OC)c3OC)[C@H]1N(Cc1ccccc1)C(=O)c1cc(F)c(F)cc12 was read as TRPML1 agonist -0.5 and ClpP mod -5.1%.
`COC(=O)[C@]12CCCCC=C1N(Cc1cccc3ccccc13)C(=O)[C@H](CC(=O)N1CCCCC1)C2` gave TRPML1 agonist -0.8 and ClpP mod 2.6%.
For OCCNc1ncnc2c1ncn2[C@H]1CN(C2CCCC2)C[C@@H](CO)O1 the results were TRPML1 agonist 0.2 and ClpP mod 2.1%.
Screening CC1(C(=O)NCc2cccc3ccccc23)CCN1Cc1cccc2c1OCO2 (stereo not given) returned TRPML1 agonist -0.8 and ClpP mod -1.7%.

10 compounds from above, arranged by heavy-atom count, high to low.
CCOC(=O)[C@]12Cc3c(cc(OC)c(OC)c3OC)[C@H]1N(Cc1ccccc1)C(=O)c1cc(F)c(F)cc12 was read as TRPML1 agonist -0.5 and ClpP mod -5.1%.
`CC(C)(C)c1ccc(S(=O)(=O)NC(=O)C2(C)CCN2C(=O)Cc2ccc(-c3ccccc3)cc2)cc1` (stereo not given) gave TRPML1 agonist 1.0 and ClpP mod 2.4%.
Screening COc1cccc(CNC(=O)[C@@H]2CCCN2C(=O)[C@@H]2CCCN2C(=O)c2ccc(Cl)cc2)c1 returned TRPML1 agonist -0.8 and ClpP mod 0.4%.
CCCCN(C=O)c1c(CC)nc2ccc(C(=O)NCc3ccccc3OC)cn12 was read as TRPML1 agonist -1.0 and ClpP mod -6.1%.
Screening CC1(C(=O)NCc2cccc3ccccc23)CCN1Cc1cccc2c1OCO2 (stereo not given) returned TRPML1 agonist -0.8 and ClpP mod -1.7%.
For OCCNc1ncnc2c1ncn2[C@H]1CN(C2CCCC2)C[C@@H](CO)O1 the results were TRPML1 agonist 0.2 and ClpP mod 2.1%.
Screening Cc1cc(O)ccc1Nc1cc(-c2cccc(N(C)C)c2)ncn1 returned TRPML1 agonist -0.9 and ClpP mod -4.7%.
`C=C1C2=C(C(=O)N1OC)[C@@H](O)[C@@](C)(O)[C@@H](CCCCC)O2` gave TRPML1 agonist 0.5 and ClpP mod 0.0%.
`CC(C)c1ccc(/C=C/C(=O)Nn2cnnc2)cc1` gave TRPML1 agonist -0.4 and ClpP mod -2.8%.
N#Cc1ccc[n+](CC(=O)c2ccc(F)cc2)c1 was read as TRPML1 agonist 1.0 and ClpP mod 0.1%.
